MT1-MMP act inh – MT1-MMP (human) activation inhibition. P50281. GFP/RFP ratio change, % at 20 µM. HT1080 RFP-PRO-GFP cells, GFP/RFP ratio fluorescence, overnight; percent of plate control window, DMSO zero. 0.061% of 360,000 active;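 active = GFP/RFP ratio change of at least 30% with cell ATP level not reduced by more than half and red fluorescence within 50% of control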; note: strong numbers were not always called active
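Assay system: HT1080 cells carrying an RFP-PRO-GFP reporter | Dosing: Single dose of 20 µM compound, 1% DMSO final | Incubation: Cells overnight before dosing, compound overnight, 37 °C, 5% CO2 | Evaluation: GFP/RFP fluorescence ratio | Control set: DMSO and RFP-L50D-GFP cell wells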
eIF4H FP inh – inhibitors of RNA binding by human eIF4H. Q15056. eIF4H fluorescence polarization binding assay. inhibition, % at 35 µM. 0.94% of 290,000 active. AID 2012;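 active = 50% or more with normal probe brightness, or confirmed in later tests; about a fifth of its hits are not listed in these tables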;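 note: calls also rest on retests at 20 µM and on dose response follow-up; 0% = protein and probe with vehicle and 100% = probe without protein; strong numbers were not always called active; many hits fall short of the cut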
HIV Env fusion – inhibitors of HIV Env-mediated cell fusion. HeLa-JRFL Env/CEM21 cell fusion, luciferase. inhibition, % at 12.3 µM. 1.1% of 360,000 active. AID 651610;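 active = mean replicate inhibition score of at least 50 and every replicate individually at or above 50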;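 note: 0% = plate neutral controls and 100% = maraviroc near 300 nM; one replicate is shown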
PABP polyA inh – PABP-poly(A) binding inhibition | PABP-poly(A) RNA binding, fluorescence polarization | P11940 | 1% of 290,000 active | inhibition, % at 35 µM;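 active = 50% or more with normal probe brightness, or confirmed in later tests; about a fifth of its hits are not listed in these tables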;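 note: calls also rest on retests at 20 µM and on dose response follow-up; controls were probe without protein and protein plus probe with vehicle; some compounds called inactive have numbers as strong as hits; many hits fall short of the cut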
Target sequence (P11940 whole entry, looked up): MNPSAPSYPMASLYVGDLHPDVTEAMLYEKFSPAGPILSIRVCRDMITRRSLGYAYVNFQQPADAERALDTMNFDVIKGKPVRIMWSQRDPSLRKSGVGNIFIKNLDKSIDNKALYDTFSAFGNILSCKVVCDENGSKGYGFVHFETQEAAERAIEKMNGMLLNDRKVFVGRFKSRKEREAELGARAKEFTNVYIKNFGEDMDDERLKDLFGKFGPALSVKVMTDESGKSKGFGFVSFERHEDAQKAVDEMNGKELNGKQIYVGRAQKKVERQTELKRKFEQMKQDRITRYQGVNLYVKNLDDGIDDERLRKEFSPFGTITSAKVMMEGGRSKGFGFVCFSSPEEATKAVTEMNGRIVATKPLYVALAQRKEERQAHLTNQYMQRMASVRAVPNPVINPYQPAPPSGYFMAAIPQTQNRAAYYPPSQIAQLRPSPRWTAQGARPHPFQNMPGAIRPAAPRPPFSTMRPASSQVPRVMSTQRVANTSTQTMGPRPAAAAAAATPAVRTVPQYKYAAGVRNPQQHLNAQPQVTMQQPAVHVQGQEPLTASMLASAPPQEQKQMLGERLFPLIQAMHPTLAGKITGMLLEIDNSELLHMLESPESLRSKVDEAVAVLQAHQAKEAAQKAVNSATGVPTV
CSC inhib – blocks cancer stem cells | cancer stem cell-like cells viability, luminescence | inhibition, % at 7.5 µM | 1.1% of 300,000 active;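 active = mean at 75% or more and at least half the replicates too; tested in HMLE shEcad cells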;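 note: 0% = median of negative and 100% = median of positive control wells; the first replicate is given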
Rce1 inhib – inhibitors of yeast Ras-converting enzyme; Q03530; 0.27% of 290,000 active; calls only; yeast membranes, quenched prenylated peptide cleavage fluorescence;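 active = fall in fluorescence gain of 50% or more versus controls, with final raw signal at or below 3038400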;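 note: plate controls were neutral control wells for no effect and wells lacking membranes for full effect; tested at 10 µM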
Target sequence (Q03530 whole entry, looked up): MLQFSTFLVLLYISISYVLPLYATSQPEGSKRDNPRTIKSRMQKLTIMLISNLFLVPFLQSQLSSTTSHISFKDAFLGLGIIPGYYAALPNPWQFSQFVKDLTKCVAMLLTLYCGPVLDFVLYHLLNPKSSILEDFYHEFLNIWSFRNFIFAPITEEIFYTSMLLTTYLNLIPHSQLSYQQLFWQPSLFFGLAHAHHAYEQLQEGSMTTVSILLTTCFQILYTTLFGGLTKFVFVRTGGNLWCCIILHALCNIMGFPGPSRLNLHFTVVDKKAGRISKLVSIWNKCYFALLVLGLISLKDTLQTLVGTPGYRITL
Yeast UUG start – alters start codon recognition fidelity in yeast | S. cerevisiae UUG-firefly luciferase reporter, luminescence/redox ratio | activity score, % at 18.7 µM | 0.13% of 350,000 active;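 active = replicate mean at a twofold rise or more, about +100% in these data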;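 note: firefly luciferase made from a UUG start codon reports start codon fidelity; reporter light over untreated wells divided by growth signal over untreated wells; some hits fall short of that in this replicate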
eIF4H FP inh retest – also measured in eIF4H FP inh; calls as there; inhibition, %; compound at 20 µM; confirmation average;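 mean of two retest wells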
PABP polyA inh retest – recorded beside PABP polyA inh, whose call it bears; inhibition, %; compound at 20 µM; confirmation repeats;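 mean of two retest wells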
MT1-MMP act inh RFP – also measured in MT1-MMP act inh; calls as there; RFP signal change, %; measured here: RFP expression control read;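 0 = vehicle wells; hits needed this value within 50% of zero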
* = called active by the depositor; i = inactive; · = no result given; [ ] = remark or other dose.

SMILES | MT1-MMP act inh | MT1-MMP act inh RFP | eIF4H FP inh | HIV Env fusion | PABP polyA inh | CSC inhib | Rce1 inhib | Yeast UUG start | others
O=C(O)c1ccc(S(=O)(=O)N2CCSCC2)cc1 | -4 | -2 | -2 | -2 | -2 | 3 | i | -16
c1ccc(-n2nnnc2Cc2nnnn2-c2ccccc2)cc1 | 0 | 4 | -9 | 3 | 51 | 1 | i | -4 | eIF4H FP inh retest=-5;PABP polyA inh retest=-8
Nc1nc(Nc2cccc(C(F)(F)F)c2)nc(C(F)(F)F)n1 | -16 | -20 | 0 | · | -7 | 3 | i | -4
CCc1cccc(N(C(=O)c2csnn2)C(C(=O)NC2CCCCC2)c2ccncc2)c1 (stereo unspecified) | 3 | 7 | -6 | 18 | 2 | 0 | i | -17
COc1ccc(NC(=O)CSc2nnc(C3CC3)n2-c2ccccc2)cc1 | -1 | 4 | 1 | -3 | 2 | -6 | i | -13
Cc1ccc(C(=O)Nc2nnc(CC(=O)N/N=C/c3ccncc3)s2)cc1 | 2 | 5 | -10 | -18 | -3 | 17 | i | ·
O=[N+]([O-])c1ccc(N(CCO)Cc2ccccc2)c([N+](=O)[O-])c1 | 5 | 0 | -4 | -2 | 18 | · | i | -6
COC(=O)[C@]1(Cc2ccccc2)N[C@H](CN(C)C(=O)Nc2ccccc2)[C@@H]2C(=O)N(Cc3ccccc3)C(=O)[C@@H]21 | 5 | 2 | · | -30 | · | · | · | 6
CCOC(=O)C1(Cc2ccccc2C(F)(F)F)CCN(C2CCC2)CC1 | -1 | 5 | -7 | 18 | 0 | 45 | i | ·
Cc1cc(OCC(=O)Nc2ccc(CCO)cc2)c2c(C)c(C)c(=O)oc2c1 | 5 | 2 | -10 | -12 | 9 | -10 | i | -14
CC(OC(=O)C1CC(=O)N(Cc2ccccc2)C1)C(=O)Nc1ccccc1[N+](=O)[O-] (stereo unspecified) | 1 | 1 | · | 13 | · | 24 | i | 21
COc1ccc(NC(=O)c2ccccc2-c2ccccc2C(=O)O)cc1 | -2 | 0 | 2 | -11 | 0 | · | i | 6
Clc1ccccc1CN1CCN(/N=C/C=C/c2ccco2)CC1 | -1 | -1 | 22 | 17 | 17 | 8 | i | ·
N#Cc1ccccc1Cn1c(=O)n(Cc2ccc(C(=O)NCc3ccco3)cc2)c(=O)c2ccccc21 | 2 | 3 | -7 | · | -17 | -3 | i | -16
CCOC(=O)c1nc(C)nc(Sc2n[nH]c(-c3ccc(C(C)(C)C)cc3)n2)c1C | 0 | -4 | 4 | -5 | 1 | 10 | i | -2
COC(=O)C(Cc1ccc(O)cc1)NC(=O)NC12CC3CC(CC(C3)C1)C2 (stereo unspecified) | -2 | 1 | -8 | 13 | -2 | 6 | i | -13
O=C(NCc1ccccn1)C1CCC(=O)N1C1CCCC1 (stereo unspecified) | 3 | 6 | · | -14 | · | · | i | -33
COCC(=O)Nc1nnc(-c2cccs2)s1 | 4 | 4 | -5 | -32 | -8 | -5 | i | -13
CCOC(=O)N1CCN(Cc2nc(N)nc(Nc3ccc(OCC)cc3)n2)CC1 | -4 | -2 | -2 | -19 | -11 | -8 | i | -18
CC(C)CN(C(=O)CSc1nncn1C)C1CCS(=O)(=O)C1 (stereo unspecified) | 5 | 4 | · | · | · | -3 | · | 0
COc1ccc(-c2nnc(S/C(=C/c3ccc(Cl)cc3)C(=O)O)o2)cc1 | 0 | 4 | -13 | -10 | -8 | -7 | · | ·
O=C(COc1ccc2oc3c(c2c1)CCCC3)Nc1ccccn1 | -5 | -5 | -9 | -93 | -2 | -5 | i | -19
O=C1OC(c2ccc(F)cc2)=N/C1=C\c1ccc(Br)o1 | 3 | 2 | 21 | -1 | 5 | -2 | i | ·
Fc1ccc(NCc2cn3ccccc3n2)cc1 | -24 | 3 | -6 | · | 2 | -6 | i | -23
Cc1cc(C)c(S(=O)(=O)N2CCOC2CNC(=O)C(=O)NCCN(C)C)c(C)c1 (stereo unspecified) | -3 | 4 | 16 | -242 | 19 | 11 | i | -17
Cc1c(Nc2nc(C(F)(F)F)nc3ccccc23)c(=O)n(-c2ccccc2)n1C | -2 | -1 | -8 | 10 | 3 | 15 | i | -8
COCCN1C(=O)N[C@@H](c2ccccc2)[C@H](C(C)=O)[C@H]1C | 1 | -1 | · | -7 | · | · | i | -6
Cc1cccc(NC(=O)Cc2c(F)cccc2Cl)n1 | -2 | 1 | -10 | -1 | -2 | -12 | i | -13
O=C(C[C@@H]1C/C=C\C[C@@H](Cc2ccc(F)cc2)C(=O)OCCNC1=O)N[C@H](CO)Cc1ccccc1 | -1 | -7 | · | 3 | · | 9 | · | 7
CN1CCN(C(=S)c2ccc(-c3cccc(Cl)c3Cl)o2)CC1 | 0 | 9 | 38 | -64 | -4 | 52 | i | -10
COc1cccc(OC)c1C(=O)NCCOc1cc(C)cc(C)c1 | 2 | -3 | -3 | 22 | 6 | -3 | i | -8
CN1CCN(NC(=O)CN2C(=O)/C(=C/c3c(Cl)cccc3Cl)SC2=S)CC1 | 25 | 23 | 1 | 26 | -2 | -11 | i | -11
N/C(=N\OC(=O)c1cc(Cl)ccc1Cl)c1ccncc1 | -4 | 1 | -13 | -85 | -1 | · | i | ·
CC(C)C(=O)N1CCN(c2ccccc2NC(=S)NC(=O)/C=C/c2ccco2)CC1 | -5 | 1 | · | -2 | · | -16 | · | -5
Cc1c(C(=O)O)c2cc(O)ccc2n1-c1ccccc1 | 0 | 0 | 5 | -25 | 8 | -20 | i | -8
COCCCn1c(=N)c(C(=O)NCc2ccc3c(c2)OCO3)cc2c(=O)n3ccccc3nc21 | 1 | 1 | 8 | -29 | 0 | -7 | i | -17
CCN(CC)c1nc2c(s1)C(=O)CC(C)(C)C2 | 3 | 2 | -2 | · | -2 | · | i | -8
COc1c2c(cc3c1C(CC(O)Cc1ccccc1)N(C)CC3)OCO2 (stereo unspecified) | -17 | -8 | 5 | -2 | 1 | -1 | i | 2
O=C(NC1CCCCC1)c1cc(S(=O)(=O)N2CCN(c3ccccc3)CC2)ccc1Cl | 2 | -9 | · | 19 | · | · | · | 0
Cc1ccc(-n2ncc3c(Nc4c(C)n(C)n(-c5ccccc5)c4=O)ncnc32)c(C)c1 | 4 | 0 | -6 | · | 4 | -17 | i | -5
Cc1ccc(S(=O)(=O)N2CCC(=O)N(CCOCc3cccc(Cl)c3)CC2)cc1 | 4 | -8 | -7 | 28 | 30 | -13 | i | -8
CCNc1nc(NCC)nc(SCCOC(=O)COc2ccc(Cl)cc2Cl)n1 | 3 | 5 | -1 | · | 5 | -4 | i | -13
CC(=O)N/N=C(\C)CC(=O)Nc1cccc2c1CCCC2 | -2 | 1 | -8 | -1 | 6 | -7 | i | ·
CC1=NN(C(=O)c2ccc(Cn3nc(C)cc3C)o2)C(O)(C(F)(F)F)C1 (stereo unspecified) | 3 | 4 | -10 | -2 | -9 | · | i | 2
Cc1ccccc1OCC(=O)OC(C)C(=O)NC1CCCC1 (stereo unspecified) | 0 | 5 | · | · | · | -8 | · | 11
CC1c2ccccc2N(NC(=O)Cc2ccccc2)C1C (stereo unspecified) | 0 | 1 | 7 | 25 | -12 | -4 | · | ·
COc1ccc(NC(=O)N(C2CCCCC2)C(C)c2ccco2)c(OC)c1 (stereo unspecified) | 0 | -3 | 7 | · | -4 | 5 | i | -10
CCOC(=O)N1CCN(C(c2ccc(Cl)cc2)c2sc3nc(C)nn3c2O)CC1 (stereo unspecified) | 0 | 0 | -3 | -23 | 10 | 11 | i | -17
COc1cccc(Nc2nc(-c3cccs3)nc3ccccc23)c1 | -3 | -5 | -7 | -12 | 1 | 89* | i | -3
Cc1cccc(C)c1NC(=O)CN1CCN(C(=O)C2CCC2)CC1 | 2 | 1 | · | -23 | · | · | · | -16
COC(=O)Cc1c(C(=O)OC)nnn1-c1ccc(OC(F)(F)F)cc1 | -1 | 0 | -6 | -8 | 4 | -28 | i | -18
COc1ccc(NC(=S)NC(NC(=O)c2cccc3ccccc23)C(Cl)(Cl)Cl)c([N+](=O)[O-])c1 (stereo unspecified) | 4 | -6 | -8 | · | 0 | 39 | i | -12
Cc1ccc(C(=O)NC(=C(Cl)Cl)S(=O)(=O)c2ccc(C)cc2)cc1 | 0 | 5 | -10 | 7 | -10 | 96* | i | 1
Cc1nc(NC(=O)c2cc3c(s2)CCCCC3)sc1C(=O)N(C)C | 3 | -3 | -8 | -35 | -3 | 9 | i | 0
CN1C(=C2C(=O)OC(C)(C)OC2=O)Sc2ccccc21 | -1 | 0 | -5 | · | -5 | -10 | i | -17
CCN(CCCNC(=O)CCC(=O)N1CCOc2ccccc21)Cc1ccccc1 | 6 | 6 | 0 | -13 | -3 | -3 | i | 10
COCCN(C(=O)CSc1n[nH]c(-c2ccccc2)n1)c1c(N)n(CC(C)C)c(=O)[nH]c1=O | -1 | -2 | · | 0 | · | · | i | -18
Cc1ccc2nc(N3CCOCC3)c(C=O)c(=O)n2c1 | -1 | 5 | -4 | -7 | -6 | 3 | i | -18
O=C(c1ccc(N2CCCCC2)c([N+](=O)[O-])c1)N1CCN(c2ccccn2)CC1 | -4 | 1 | -6 | 0 | -14 | 16 | i | 7
CC(C)NC(=O)Cn1nnc(-c2ccc(Cl)cc2)n1 | 2 | 2 | -7 | · | -4 | -10 | i | -17
More results
SMILES | MT1-MMP act inh | MT1-MMP act inh RFP | eIF4H FP inh | HIV Env fusion | PABP polyA inh | CSC inhib | Rce1 inhib | Yeast UUG start | others
COCC1CCN(C(=O)c2cc(COc3ccc4ncccc4c3)on2)CC1 | -10 | -28 | -9 | 38 | 4 | 3 | i | ·
CCOc1ccc(N=C2NC(=O)C(CC(=O)Nc3ccc(OC)cc3)S2)cc1 (stereo unspecified) | 3 | 0 | -8 | -2 | 2 | -12 | i | -17
CC(=O)c1ccc(NC(=O)CN2C(=O)CCC2=O)cc1 | 2 | 5 | 6 | -8 | 6 | · | i | ·
O=C(Nc1ccc(Cl)cc1)N[C@H]1CC[C@H](CCn2cc(-c3ccccc3F)nn2)O[C@@H]1CO | 4 | -17 | · | 17[16.7 µM] | · | · | · | -13
CC(C)C(NS(=O)(=O)c1ccc(Br)s1)C(=O)O (stereo unspecified) | 1 | 6 | -4 | · | 2 | 0 | i | -16
O=C(Nc1cccc(F)c1)c1cccnc1 | -1 | -1 | -12 | -4 | -1 | -5 | i | 0
C=CCNc1nc(S(=O)Cc2ccc(C)cc2)nc2c1CCCC2 (stereo unspecified) | 2 | 2 | 2 | 9 | -3 | 7 | i | ·
O=C(CSc1nc(O)c(Cc2ccccc2)c(=O)[nH]1)Nc1nnc(SCc2ccccc2)s1 | 7 | 3 | 1 | 23 | -3 | -3 | i | -16
COc1cc(/C=C2\N=C(C)OC2=O)cc(OC)c1OC | 1 | 2 | -3 | -6 | -5 | -8 | i | -15

Screening data (PubChem BioAssay)
